MARV entry inh: blocks Marburg virus binding to or entry into cells. Marburg virus pseudotyped entry inhibition, cell reporter; control for the full effect not named in the record; about a third of the inactives were read at about 46 µM. Potency, µM (top dose mostly 37.8 µM), for inactives: at the top dose activity change, negative = inhibition, most hits filed as inhibitors. 1.8% of 300,000 active; active = well fitted inhibition curve with a large enough effect; inconclusive = small, poorly fitted or top-dose-only effect, or effect the other way; inactive = flat fitted curve, though single readings scatter; tested in HEK293 cells; about a fifth of its hits are not listed in these tables; further: on the % scale 0 is the no-effect control and ±100 the full control effect; luciferase read-out
SARS PLP yeast: inhibitors of SARS-CoV papain-like protease in yeast. S. cerevisiae expressing SARS-CoV PLpro, growth rescue; control for the full effect not named in the record. Potency, µM (titrated, usually from 32.9 µM), without a hit: at the highest dose activity, positive = growth rescue. 0.19% of 330,000 active; active means well fitted rising curve with a large enough effect; inconclusive means small, poorly fitted or top-dose-only effect; inactive means no such curve, though single readings can be large or run the other way; further: 0% is about no effect; nearly all actives have a fitted effect of over 55% in size; growth read by luminescence after 48 h
2A StopGo: FMDV 2A StopGo reporter, luciferase signal; human cells with a luciferase reporter of 2A StopGo recoding; control for the full effect not named in the record; Potency, µM (top dose mostly 57.9 µM), for the others: at the top dose signal change, negative = less light; 1.2% of 410,000 active; AID 1159524; active = well fitted falling curve with a large enough effect; inconclusive = small, poorly fitted or top-dose-only effect; inactive = no such curve, though single readings can be large or run the other way; tested in HEK293T cells; further: on the % scale 0 is the no-effect control and ±100 the full control effect; nearly all actives have a fitted effect of over 45% in size; luciferase light after 4 h
Cruzain noTriton: blocks cruzain activity in detergent-free assay. P25779. purified cruzain, Z-FR-AMC fluorescence, no detergent. Potency, µM, for the others: max response, negative = inhibition, usual class: inhibitors. 2.3% of 200,000 active. AID 1476;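 further: plate controls were enzyme without inhibitor for no effect and buffer without enzyme for full effect; nearly all actives have a fitted effect of over 40% in size; top concentration of the series not given in the record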
Target sequence (P25779 123-467 limits assumed): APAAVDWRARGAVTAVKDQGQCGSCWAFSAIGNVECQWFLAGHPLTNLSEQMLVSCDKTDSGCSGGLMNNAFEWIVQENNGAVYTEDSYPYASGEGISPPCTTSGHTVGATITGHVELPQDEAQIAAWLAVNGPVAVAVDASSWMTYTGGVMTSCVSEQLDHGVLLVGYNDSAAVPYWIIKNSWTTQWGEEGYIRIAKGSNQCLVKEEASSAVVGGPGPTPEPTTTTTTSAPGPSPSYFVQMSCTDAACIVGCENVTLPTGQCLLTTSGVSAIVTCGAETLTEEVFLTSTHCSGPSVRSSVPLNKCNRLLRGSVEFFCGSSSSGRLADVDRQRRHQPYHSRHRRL
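Purified cruzain at 1.5 nM, pre-incubated 15 min with compound at room temperature in 100 mM sodium acetate pH 5.5, 5 mM DTT, 0.00005% Triton X-100. Reaction started with 2 uM Z-FR-AMC; AMC fluorescence increase over 60 s gives rate.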
Cruzain inh Det: blocks cruzain activity in presence of Triton detergent; P25779; purified cruzain, Z-FR-AMC fluorescence, 0.01% Triton; Potency, µM, inactives show max response, negative = inhibition, usual class: inhibitors; 0.43% of 200,000 active;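 further: plate controls were neutral wells for no effect and buffer without enzyme for full effect; nearly all actives have a fitted effect of over 40% in size; top concentration of the series not given in the record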
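Cruzain (1.5 nM) preincubated 15 min at RT with compound in 100 mM sodium acetate pH 5.5, 5 mM DTT, 0.01% Triton X-100. Reaction started with 2 uM Z-FR-AMC; AMC fluorescence (ex 360/em 450 nm) change over 60 s gave rate.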
NS1 function inh: influenza NS1 inhibition; S. cerevisiae slowed by influenza A NS1, growth recovery by OD600; AID 2326; Potency, µM (doses to about 46.1 µM), for inactives: at the top dose activity, positive = more growth; 0.4% of 270,000 active; active means well fitted rising curve with a large enough effect; inconclusive means small, poorly fitted or top-dose-only effect; inactive means no such curve, though single readings can be large or run the other way; further: nearly all actives have a fitted effect of over 50% in size
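Growth recovery, yeast-based: influenza A NS1 expressed in S. cerevisiae causes slow growth, and suppressors are detected by OD600. The parent strain without NS1 is used as positive control.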
Lassa entry inh: blocks Lassa virus binding to or entry into cells | Potency, µM (highest dose often 37.9 µM), for inactives: at the top dose activity change, negative = inhibition, actives largely listed as inhibitors | 1.2% of 300,000 active | Lassa virus pseudotype entry inhibition, cell reporter; control for the full effect not named in the record; active means well fitted inhibition curve with a large enough effect; inconclusive means small, poorly fitted or top-dose-only effect, or effect the other way; inactive means flat fitted curve, though single readings scatter; tested in HEK293 cells; further: on the % scale 0 is the no-effect control and ±100 the full control effect; nearly all actives have a fitted effect of over 50% in size; luciferase read-out
RE007 growth inh: less growth of the S. pombe RE007 Vpr strain. S. pombe RE007 Vpr strain, BacTiter-Glo ATP luminescence, 24 h; control for the full effect not named in the record. Potency, µM (highest dose often 92.2 µM), without a hit: top-dose activity change, negative = less growth. 0.21% of 360,000 active; active = well fitted falling curve with a large enough effect; inconclusive = small, poorly fitted or top-dose-only effect; inactive = no such curve, though single readings can be large or run the other way;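 further: on the % scale 0 is the no-effect control and ±100 the full control effect; nearly all actives have a fitted effect of over 50% in size; the assay follows cell death caused by Vpr and the record does not say whether a fall means rescue or toxicity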
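Fission yeast strain RE007, carrying one chromosomally integrated HIV-1 vpr copy, was seeded at OD 0.01 in PMG+AL medium with 23 nL pinned compound. After 24 h at 30 °C and 99% humidity, viability was read by BacTiter-Glo luminescence.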
* = called active by the depositor; ? = inconclusive; · = not tested or not shown; & = joins results of further samples; [ ] = another dose, or the depositor's remark. Unless noted, the call rests on the fitted dose curve; in most records, active means well fitted curve in the direction sought with a large enough effect; inconclusive means small, poorly fitted or top-dose-only effect, or another doubt; inactive means no such curve, though single readings can be large; an effect the other way counts as inactive or inconclusive. Potency means the concentration at half of the fitted maximal effect.

cpd	Structure	MARV entry inh	SARS PLP yeast	2A StopGo	Cruzain noTriton
1	COc1cccc(-n2nnc3c(=O)n(Cc4c(F)cccc4Cl)cnc32)c1	0%	0%	·	20%
2	COc1ccc(-c2nn(CCC#N)cc2C(=O)Nc2cccc(C(=O)O)c2)cc1[N+](=O)[O-]	-1%[46.1 µM]	-4%	-1%	·
3	CCCNC(=O)CSCc1nc(-c2ccc(SC)cc2)oc1C	-14%[46.1 µM]	3%	-22%	·
4	COC(=O)C1=C(C)NC(=O)C1(NC(=O)c1cccnc1)C(F)(F)F (stereo not drawn)	0%	9%	-1%	-8%
5	O=C(O)CC12CC3CC(C1)CC(n1ncc(NCc4ccc(F)cc4)c(Cl)c1=O)(C3)C2	·	0%	-1%	·
6	COc1cc(OC)c(-c2nnc(-c3ccc(OC)c(OC)c3OC)o2)cc1OC	8%	-6%	-27%	?
7	O=C(Nc1ccc(NC(=O)C23CC4CC(CC(C4)C2)C3)cc1)c1cc(F)c(F)cc1Cl	1%[46.1 µM]	1%	-5%	25µM*
8	COc1ccccc1CNC(=O)Cn1c(=O)oc2ccccc21	?	·	44%[activator]	-3%
9	CC(=O)Nc1cccc(NC(=O)COC(=O)C2CC3CCCC(C2)C3=O)c1 (stereo not drawn)	12%	6%	1%	·
10	CCc1cccc2c(C(=O)COC(=O)c3ccc([N+](=O)[O-])s3)c[nH]c12	3%	-61%	-22%	?
11	O=C(NC(Cc1c[nH]c2ccccc12)c1nnc2n1CCCCC2)c1cccs1 (stereo not drawn)	1%&-1%	-6%	·	-14%
12	COc1ccccc1N1CCN(CC(O)COc2ccc(C)cc2C(C)(C)C)CC1 (stereo not drawn)	?	·	-30%	8%

cpd	Cruzain inh Det	NS1 function inh	Lassa entry inh	RE007 growth inh
1	-6.6%	2%	-21%	5%
2	·	10%	16%[46.1 µM]	7%
3	·	·	-19%[46.1 µM]	-23%
4	-0.4%	4%	2%	6%
5	·	5%	·	4%
6	-23%	16%	-10%	-1%
7	6.3%	7%	-13%	8%
8	-1.3%	·	12%[46.1 µM]	·
9	·	19%	16%	-3%
10	-6.8%	-55%	-12%	?
11	4.7%	-1%	15%	-13%
12	-3.2%	·	1%[46.1 µM]	·

New compounds follow
cpd	Structure	MARV entry inh	SARS PLP yeast	2A StopGo	Cruzain noTriton
13	CC1CCCC(NC(=O)COC(=O)c2ccc(N(C)C)cc2)C1C (stereo not drawn)	-1%&-1%	0%	-3%	-6%
14	O=C(Nc1ccc(-c2csc(Nc3ccc(Cl)cc3)n2)cc1)c1cc([N+](=O)[O-])cc(C(F)(F)F)c1	·	0%	-8%	·
15	CCc1ccc(N(CC(=O)Nc2nc3ccc(C)cc3s2)S(=O)(=O)c2c(C)noc2C)cc1	·	-5%	?	?
16	O=C(CN1C(=O)NC2(CCc3ccccc32)C1=O)c1ccc2c(c1)OCCO2 (stereo not drawn)	4%	4%	22%	-28%
17	Cc1cc2c(cc1S(=O)(=O)N(C)c1ccccc1)NC(=O)CO2	?	0%	-26%	·
18	COc1ccc(-n2c(C)nc3ccccc3c2=O)c([N+](=O)[O-])c1	-11%	-4%	-20%	·
19	O=C(Nc1ccccc1Cl)NC1(C(=O)NCc2cccnc2)CCCCC1	8%[46.1 µM]	1%	-1%	·
20	Cc1cccc(N(C)S(=O)(=O)c2c[nH]c3ccc([N+](=O)[O-])cc23)c1	?	·	36%[activator]	·
21	CCOC(=O)C1CCN(C(=O)COc2ccc(Cl)cc2)CC1	?	3%	-1%	-6%
22	COc1ccc(C2NC(=O)NC(C)=C2C(=O)OCc2ccc3c(c2)OCO3)cc1OC (stereo not drawn)	14%	3%	-4%	23%
23	COc1cccc(NC(=O)N2CCC(NC(=O)c3ccco3)CC2)c1	-24%[46.1 µM]	3%	-7%	·
24	CC(=O)Nc1ccc(S(=O)(=O)N2CCN(C(=O)c3cccnc3)CC2)cc1	3%	10%	0%	-5%

cpd	Cruzain inh Det	NS1 function inh	Lassa entry inh	RE007 growth inh
13	-0.9%	-4%	?	8%[3.69 µM]
14	·	6%	·	4%
15	-0.3%	22%	·	10%
16	-0.9%	-5%	0%	2%
17	·	·	-13%[46.1 µM]	12%
18	·	-1%	-3%	3%
19	·	-4%	-16%[46.1 µM]	-9%
20	·	21%	-18%[46.1 µM]	9%
21	3.2%	-8%	-9%	-11%
22	-2.2%	6%	-5%	-8%
23	·	-8%	3%	0%
24	1.5%	-11%	3%	4%

(next part)
cpd	Structure	MARV entry inh	SARS PLP yeast	2A StopGo	Cruzain noTriton
25	Cc1oc2ccc(OCC(N)=O)cc2c1C(=O)OC(C)C	?	-8%	-4%	11%
26	COc1ccc(NC(=O)Cn2cnc3c(cnn3-c3ccc(C)c(C)c3)c2=O)c(OC)c1	-7%	3%	?	?
27	CCOc1ccc(CC(=O)NNC(=S)NC)cc1	-7%[46.1 µM]	2%	-1%	·
28	CCC(=O)Nc1ccc(Cl)c(NC(=S)NC(=O)COc2ccc(Cl)cc2)c1	?	3%	13%	?
29	O=C(NCC1COCCO1)c1cc(COc2c(F)cccc2F)on1 (stereo not drawn)	11%	0%	16%	·
30	COc1cccc(COC(=O)c2ccc3c(c2)NC(=O)C(C)S3)c1OC (stereo not drawn)	9%	-5%	?	·
31	NC(=O)c1cn(-c2ccccc2)nc1-c1cc2ccccc2oc1=O	-13%	13%	-8%	-1%
32	COc1cccc(NC(c2nnc(-c3ccccc3)o2)c2ccc(F)cc2Cl)c1 (stereo not drawn)	-4%[46.1 µM]	·	-8%	-6%
33	Cc1cccc(C)c1NC(=O)Cn1cc(C=O)c2ccccc21	·	0%	-3%	·
34	CCCNC(=O)CCC(NS(=O)(=O)c1ccc(C)cc1)C(=O)NCCC (stereo not drawn)	?	-2%	·	0%
35	Cc1ccc(NC(=O)NCCSc2ccc(C)cc2)cc1	-2%[46.1 µM]	-1%	-6%	·
36	CCCCC(=O)Nc1nnc(SCC(=O)NC2CCCC2)s1	1%	-15%	4%	-26%

cpd	Cruzain inh Det	NS1 function inh	Lassa entry inh	RE007 growth inh
25	-1.1%	-1%	6%	-5%
26	2.2%	?	-18%	1%
27	·	3%	10%	-10%
28	-10%	2%	-10%	1%
29	·	-3%	-20%	4%
30	·	·	-24%	1%
31	-3.2%	1%	-1%	-7%
32	-4.5%	·	7%[46.1 µM]	·
33	·	-1%	·	4%
34	4.6%	-9%	-5%	-6%
35	·	·	10%[46.1 µM]	-17%
36	2.4%	-5%	13%	10%

Copied from the entries so far for reference:
cpd	Structure	MARV entry inh	SARS PLP yeast	2A StopGo	Cruzain noTriton
32	COc1cccc(NC(c2nnc(-c3ccccc3)o2)c2ccc(F)cc2Cl)c1 (stereo not drawn)	-4%[46.1 µM]	·	-8%	-6%
33	Cc1cccc(C)c1NC(=O)Cn1cc(C=O)c2ccccc21	·	0%	-3%	·
34	CCCNC(=O)CCC(NS(=O)(=O)c1ccc(C)cc1)C(=O)NCCC (stereo not drawn)	?	-2%	·	0%
35	Cc1ccc(NC(=O)NCCSc2ccc(C)cc2)cc1	-2%[46.1 µM]	-1%	-6%	·
36	CCCCC(=O)Nc1nnc(SCC(=O)NC2CCCC2)s1	1%	-15%	4%	-26%

cpd	Cruzain inh Det	NS1 function inh	Lassa entry inh	RE007 growth inh
32	-4.5%	·	7%[46.1 µM]	·
33	·	-1%	·	4%
34	4.6%	-9%	-5%	-6%
35	·	·	10%[46.1 µM]	-17%
36	2.4%	-5%	13%	10%

(listing goes on)
cpd	Structure	MARV entry inh	SARS PLP yeast	2A StopGo	Cruzain noTriton
37	COc1ccc(NC(=O)CN(C)C(=O)/C=C/c2ccc(OCc3ccccc3)cc2)cc1	?	1%	-8%	·
38	C[C@H](NC(=O)C1CC(=O)N(c2ccc(F)cc2)C1)C(=O)N1CCCCC1 (stereo partly drawn)	·	5%	-5%	·
39	CCOc1cc(CN2CCN(Cc3ccc(C)o3)C(CCO)C2)ccc1OC (stereo not drawn)	·	1%	-8%	·
40	O=C(OCC(=O)c1cccc2ccccc12)c1ccc(CO)cc1	16%	-5%	1%	·
41	CCSC1=C(C#N)C(CC(C)C)C2=C(CCCC2=O)N1 (stereo not drawn)	·	-1%	-26%	·
42	CNC(=O)CSCc1cnn(-c2ccccc2)c1-n1cccc1	17%	6%	-20%	6%
43	OC[C@H]1O[C@@H](n2cnc3c(NCCc4ccccc4)ncnc32)[C@H](O)[C@H]1O	?	·	·	4%
44	O=C(Nc1cc(C(F)(F)F)ccc1-n1cncn1)C1CC1	-1%[46.1 µM]	-4%	-12%	·
45	CCOc1ccccc1NC(=O)CCc1nnc2ccc(N3CCC4(CC3)OCCO4)nn12	20%[46.1 µM]	20%	-4%	·
46	O=S(=O)(c1ccc(-c2csc(-c3cccnc3)n2)cc1)N1CCOCC1	?	-2%	-22%	·
47	CCN1CCN(CC(=O)Nc2ccc(C)cc2C)C(=O)C1=O	·	9%	-11%	1%
48	COc1ccc(CCNC(=O)CSc2nc(C)nc3c2oc2ccccc23)cc1OC	?	0%	0%	-8%

cpd	Cruzain inh Det	NS1 function inh	Lassa entry inh	RE007 growth inh
37	·	6%	?	8%
38	·	10%	·	8%
39	·	-2%	·	-9%
40	·	-55%	?	3%
41	·	-2%	·	0%
42	-1.0%	-3%	7%	-5%
43	-3.5%	-15%	·	·
44	·	·	9%	4%
45	·	22%	0%[46.1 µM]	7%
46	·	·	2%	-5%
47	4.9%	4%	·	-2%
48	12%	7%	0%	-8%

Compound activity (PubChem)
